Source: PubChem
VACV E9 pol inh: blocks vaccinia virus processive DNA synthesis; in vitro processive DNA synthesis, absorbance read-out; active compounds read low; some inactives read as strong as hits; normalized absorbance, % (concentration not given with the values); 46,000 compounds, 0.94% hits;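 active = replicate mean up to 90% and picked by the depositor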;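 note: 100% = median of the test wells of a plate; 100 nL library stock went into each well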
* hit, by the source's call; & = joins results of further samples. This is a subset; count on the stated rates, not on these rows.

SMILES	VACV E9 pol inh
c1ccc(SCc2cn3ccsc3n2)cc1	106.1
CC(C)C(=O)Nc1ccc([N+](=O)[O-])c(C(F)(F)F)c1	99.3
O=S(=O)(Nc1ccc2c(c1)OC1(CCCCC1)O2)c1ccc2ccccc2c1	99.4
CC(C)(C)c1ccc(OCCCC(=O)O)cc1	94.7
CCOc1ccc2cc(C3CC(c4ccco4)=NN3S(=O)(=O)c3ccccc3)c(Cl)nc2c1 (stereo not drawn)	95.2
Cc1ccc2onc(CC(=O)NCCN3CCN(C)CC3)c2c1	101.3
Cc1ccc(NS(=O)(=O)c2cccc(C(=O)Nc3ccccc3)c2)cc1	99.8
O=C(Nc1ccccc1)NC12CC3CC(CC(C3)C1)C2	100.4
Cc1ccc(Cn2ccc(NC(=O)c3noc4c3CCc3ccccc3-4)n2)cc1	99.2
O=C(Nc1cccnc1)c1ccc(COc2ccccc2Br)cc1	100.3
O=C(CBr)Nc1cccc(C(F)(F)F)c1	89.3
O=C(N/C=C/c1ccsc1)Nc1ccccc1C(F)(F)F	96.4
Cc1c(C)c(C)c(C(=O)CCc2cccc(NC(=O)C3CCC3)c2)c(C)c1C	92.3
CC1=C(NC(=S)NC(=O)c2ccccc2)NCc2ccccc21	97.7
c1ccc2oc(SCc3cn4ccccc4n3)nc2c1	99.6
C(=C\c1ccncc1)/c1ccncc1	92.2
CCCC(=O)Nc1nnc(-c2ccc(Cl)cc2)o1	102.5
CCc1ccc(C2=NN(CCC(=O)NC(C)CC)C(=O)CC2)cc1 (stereo not drawn)	102.6
Cn1ccnc1C(O)c1cccs1 (stereo not drawn)	100.6
O=S(=O)(Nc1nc2ccccc2nc1Nc1ccccc1F)c1ccc(Cl)cc1	100.0
NNS(=O)(=O)c1ccc(Cl)cc1	100.8
COc1ccc(OC)c(C(=O)CC2(O)C(=O)Nc3ccccc32)c1 (stereo not drawn)	98.2
Cc1ccc2cc3c(NCc4ccc(F)cc4Cl)n[nH]c3nc2c1	94.8
COC(=O)c1ccc(CSc2nnc3n(N)cnn23)cc1	101.1
CC(C)OC(=O)c1ccc(NC(=O)CSc2nc3ncccc3[nH]2)cc1	99.7

The list goes on; it opens with the two that closed the last part.
SMILES	VACV E9 pol inh
COC(=O)c1ccc(CSc2nnc3n(N)cnn23)cc1	101.1
CC(C)OC(=O)c1ccc(NC(=O)CSc2nc3ncccc3[nH]2)cc1	99.7
NC(=O)c1sc(-c2ccsc2)cc1NC(=O)c1cccs1	106.3
O/N=C/c1c(O)c(Br)cc2oc3c(c12)CCCC3	100.1
CCC(=O)NCCCc1nc2ccccc2n1C	99.2
O=C(NCCN1CCOCC1)c1cccc(Cl)c1	99.8
Cc1ccc(CN2CCSc3ccc(C(=O)Nc4ccc(F)cc4)cc32)cc1	93.0
C/C(=N\N(C)C)c1cc(Cl)cc(Cl)c1O	89.4
O=S(=O)(c1ccc2c(c1)OCCO2)N1CCN(Cc2ccccc2)CC1	90.7
Cc1ccccc1C(C#N)C(CC#N)c1ccccc1 (stereo not drawn)	94.2
CCC(C)C1N=C2c3ccccc3N=C(SCc3cc(=O)n4ccccc4n3)N2C1=O (stereo not drawn)	100.3
COc1ccc(NC2(C(N)=O)CCCCC2)cc1	99.6
COc1cccc(N2C(=O)/C(=C/c3ccco3)SC2=S)c1	99.7
Cc1cc(C)c2c(n1)nn1c(C)c(CCC(=O)NC3CCCC3)c(C)nc21	84.6
Cc1[nH]c2ccccc2c1C(Nc1cccc(C(F)(F)F)c1)c1ccccn1 (stereo not drawn)	98.8
CC(=O)N[C@@H](CSC/C=C(\C)CC/C=C(\C)CC/C=C(\C)CCC=C(C)C)C(=O)O	99.8
CC1CCC2C(C)(CO)C(O)CCC2(C)C12CCC(C)(CO)O2 (stereo not drawn)	92.3
O=c1ccc(-c2ccc(S(=O)(=O)NC3CCCCC3)s2)n[nH]1	100.5
CC1CN(C(=O)Cn2c(C(F)(F)F)nc3ccccc32)CC(C)O1 (stereo not drawn)	98.2
Cc1nn(C)c2nc(C(F)(F)F)cc(C(F)(F)F)c12	95.9
Cc1ccc(NC(=S)C(C#N)C(N)=O)cc1Cl (stereo not drawn)	81.7
CC1=NN(c2ccc(C)cc2)C(=O)C1=C1SCCCS1	99.1
O=C(Nc1nc2c(s1)CCCC2)C1=COCCO1	103.1
Cc1cc(O)c(/C=N/c2ccccn2)c(=O)o1	101.5&101.3
CCCCN(C)C(=O)c1cc(-c2ccccc2)n[nH]1	102.7
COC(=O)COc1ccc2c(=O)c(Oc3ccc(OC)cc3)coc2c1	99.9
CN(Cc1nc2ccccc2n1C)C(=O)c1cccs1	100.8
Next section:
SMILES	VACV E9 pol inh
CC(=O)Oc1ccc(N2C(=O)C3C4C=CC(O4)C3C2=O)cc1 (stereo not drawn)	100.2
O=C(CN1C(=O)CCC1=O)Nc1ccc(Br)cc1	101.4
Cc1nc(NCCc2ccccc2)c2c3c(sc2n1)CCCC3	100.3
O=C(CN1C(=O)CCc2ccccc21)NCCc1ccccc1	102.8
Cc1nn(-c2ccccc2)c2nc3c(cc12)C(=O)CC(C)(C)C3	100.5
CCOC(=O)c1c(C)oc2c1c(C=NCCC1=CCCCC1)c(O)c1ccccc12	100.2
Nc1cc(C(F)(F)F)ccc1NCCC(=O)O	99.1
CCC1(CC)Cc2ccccc2-c2nc3n(c(=O)c21)CCS3	99.9
O=C(C[n+]1cccc(/C=N/O)c1)NCc1ccccc1	98.5
Cc1ccc(S(=O)(=O)N(CCc2ccccn2)c2ccc(C(C)C)cc2)cc1	100.1
CN(C)/C=C(\C(=O)Nc1ccc(F)c(F)c1F)S(=O)(=O)c1ccccc1	111.4
c1ccc(Cn2cc(Cn3nnc(-c4ccccc4)n3)nn2)cc1	100.1
O=C(NCc1cccnc1)c1noc2c1CCCC2	99.4
C[C@]12CCC3c4ccc(OC(=O)CCC(=O)O)cc4CCC3C1CCC2=O (stereo partly drawn)	97.9
Cc1nc2cc(S(=O)(=O)C(F)(F)F)ccc2s1	103.3
O=C(Nc1nnc(/N=C/c2cccs2)s1)c1ccc(Cl)cc1Cl	102.7
N#C/C=C/c1ccc(Br)cc1	99.7
CN1N=C2C3CCN(CC3)C2C1c1ccc(Cl)c(Cl)c1 (stereo not drawn)	95.4
NC(=O)CSc1nc2cc(Cl)ccc2o1	104.2
COc1cc(OC)cc(C(=O)Nc2nc3ccc4ccccc4c3s2)c1	101.5
CSc1ccc(CCNCc2c(C(=O)O)n(C)c3cc(C)ccc23)cc1	94.1
CN(C)[C@@H]1C(=O)C(C(N)=O)=C(O)[C@@]2(O)C(=O)C3=C(O)c4c(O)cccc4[C@@](C)(O)[C@H]3[C@H](O)[C@@H]12	102.1
O=C(NCc1ccccc1)C1CCCN1c1nnc(N2CCCC2=O)s1 (stereo not drawn)	101.0
Cc1oc2nc(SCC(=O)NC3CCCCC3)nc(N)c2c1C	108.0
Cc1ccc(-c2nn(C)c(=O)c3ccccc23)cc1CNC(=O)c1ccco1	85.0
Next section
SMILES	VACV E9 pol inh
CCN1CCN(C(=O)c2cn(-c3ccccc3)nc2-c2ccc(OC)cc2)CC1	102.1
N#C/C(=C(/O)CCCl)c1ccccn1	97.3
CC(C)(C)c1ccccc1OCC(=O)NCc1ccccc1	99.8
O=C(CCSCc1cnn(-c2ccccc2)c1-n1cccc1)NCc1cccs1	107.3
COc1ccc2nc(Cl)sc2c1	98.1
COc1cccc2sc(=NC(=O)COc3ccc(Cl)cc3Cl)n(C)c12	100.1
COc1ccc(NC(=O)C2(C)c3ccccc3-c3ccccc32)cc1	96.2
CCCS(=O)(=O)NCc1cn2c(C)csc2n1	100.9
CCN(CC)C(=O)Cn1c(=O)n(Cc2ccccc2)c(=O)c2c3c(sc21)CCC3	79.6
C=CCNC(=O)CSc1nnc(-c2ccc3nonc3c2)n1C	89.4
COc1ccc(S(=O)(=O)Nc2cncc(C(=O)N3CCN(c4ccc(F)cc4)CC3)c2)cc1	100.7
COC(=O)c1ccccc1NC(=O)Cc1ccc(Cl)cc1	99.6
Cc1cccc(C)c1NC1=NC(C)(CO)CS1 (stereo not drawn)	104.5
CC(C)Cc1nnc(N)s1	98.5
COC(=O)C1=C(C)Nc2ncnn2C1c1ccccc1 (stereo not drawn)	101.0
NC(N)=NCCC[C@@H](NC(=O)[C@@H](N)Cc1ccc(O)cc1)C(=O)O	100.6
Cc1nn(C)c(C)c1S(=O)(=O)N(CC(=O)N1CCCC1)c1ccc(C(C)C)cc1	101.6
CNC(=O)Nc1cccc2cccnc12	102.7
O=C(CCC1CCCC1)Nc1c2c(nn1-c1ccc(F)cc1)CS(=O)(=O)C2	100.2
CC(C)OC(=O)C(C)Oc1ccc2c(-c3ccccc3)cc(=O)oc2c1 (stereo not drawn)	101.7
CC(C)NC(=O)CCn1c(=O)sc2ccccc21	84.3
O=C(CSc1ncnc2nc[nH]c12)c1ccc2ccccc2c1	99.6
NS(=O)(=O)c1csc(C(=O)Nc2ccccc2)c1	111.1
NS(=O)(=O)c1ccc(S(=O)(=O)NCCc2c[nH]c3ccccc23)cc1	99.3
CCc1ccc(C2=NC(C)(CC)NC(c3cc(Cl)ccc3O)C2)cc1 (stereo not drawn)	101.9
(next part)
SMILES	VACV E9 pol inh
Cc1cc(NC(C)c2ccccc2)n2c(nc3ccccc32)c1C#N (stereo not drawn)	96.4
O=C(NCCO)c1ccc(Nc2nc(-c3ccccc3)c3cc(Cl)ccc3n2)cc1	100.0
Cc1cccnc1NC(=O)NC(C)(C(F)(F)F)C(F)(F)F	100.0
CCOC(=O)COc1cc2oc(=O)cc(C)c2cc1Cl	101.5
NC(=O)c1sc2c(c1N)C(c1ccccc1Cl)CC(=O)N2 (stereo not drawn)	88.2
O=C(CN(Cc1ccc(Cl)cc1Cl)S(=O)(=O)c1ccccc1)N1CCCC1	95.0
COc1cc(C(F)(F)F)c(C(=O)N(C)Cc2ccc(Cl)cc2)cn1	99.3
Cc1c(C)c(C)c(CN)c(C)c1C	95.9
CCOC(=O)c1cc(-c2ccccc2)n(-c2cccc(C(=O)N3CCCC3)c2)c1C	78.2
CCOC(=O)C1=C(NC(=O)c2ccccc2)c2ccccc2CC12CCCC2	107.2
COc1ccc(C(=O)O)cc1Br	97.2
Cc1ccc(O)c(CNn2cnnc2)c1	103.6
Nc1cc(=O)[nH]c(=O)n1-c1ccc(Cl)cc1	101.8
COc1ccc(C(=O)Oc2csc(=S)n2C(=O)c2ccc(OC)cc2)cc1	97.5
C=CCn1c2[n+](c3ccccc3c1=O)CCCCC2	106.2
S=C(NCCc1ccccn1)Nc1ccccc1	105.1
N#Cc1ccc(COC(=O)c2ccco2)cc1	100.3
O=C1CC(Cc2ccc(Cl)cc2)C(=O)N1c1ccccn1 (stereo not drawn)	100.3
Cc1ccc(CNC(=O)Nc2nnc(N3CCCC(C)C3)s2)cc1 (stereo not drawn)	99.9
O=C(Nc1ccc(Cl)cc1)NC1CCCCNC1=O (stereo not drawn)	98.1
O=C(CCn1nc(-c2ccc(Cl)cc2)ccc1=O)N1CCC2(CC1)OCCO2	101.4
Cc1ccc(OCC(=O)N2CCN(CC3CC4C=CC3C4)CC2)cc1 (stereo not drawn)	100.6
Cc1cccc(C)c1NC(=S)N1CCCc2cccc(C)c21	111.7
CCNC(=S)N1CCOCC1	96.0
C=CCN(CC=C)c1nc(-c2ccccc2)nc2ccccc12	99.8

Filtered by structure: the entries above with a tert-butyl group (two)
SMILES	VACV E9 pol inh
CC(C)(C)c1ccc(OCCCC(=O)O)cc1	94.7
CC(C)(C)c1ccccc1OCC(=O)NCc1ccccc1	99.8

Additional records:
SMILES	VACV E9 pol inh
CC(=O)n1nccc1-c1nccnc1C	100.5
CC1CCCN(S(=O)(=O)c2ccc3[nH]c(=O)cc(C(=O)NC(C)CCc4ccccc4)c3c2)C1 (stereo not drawn)	104.5
CC1CN(C(=O)c2ccc(COCC(F)(F)F)o2)CC(C)O1 (stereo not drawn)	99.8
CC(Sc1nc2ccccc2[nH]1)C(=O)Nc1nnc(-c2ccc(F)cc2)s1 (stereo not drawn)	100.6
Cc1cccc(OC(=O)Cn2c(C(F)(F)F)nc3ccccc32)c1	107.0
O=C(c1ccco1)c1nnn(Cc2ccccc2)c1-c1ccccc1	100.0
O=C1C=C(c2ccc(Br)cc2)OC(=O)C1C(=O)c1ccc(Br)cc1 (stereo not drawn)	103.0
Cc1ccc(C)n1C(CC(=O)O)c1ccc(C#N)cc1 (stereo not drawn)	105.7
CC1CN=C(NC2CCCCC2)S1 (stereo not drawn)	95.7
COc1cccc2c(=O)n(CC(=O)N3CCCc4ccccc43)ccc12	95.9
CC(C)c1ccccc1OCC(O)CN1C(C)(C)CC(O)CC1(C)C (stereo not drawn)	93.9
Cn1c(CNc2ccc(Br)cc2)nc2ccccc21	106.2
COc1ccccc1-c1nnc(NC(=O)CSC2=NCCS2)s1	99.5
CCCn1c(C)cc(C)c(C#N)c1=O	99.1
COc1ccc2nc(/C(N)=N/O)sc2c1	100.0
CC(C)(CO)C12CC3CC(CC(C3)C1)C2	112.6
O=c1c(-c2cscn2)coc2cc(O)ccc12	87.4
CCOC(=O)C1=C(C)NC(=O)NC1c1c(Cl)nc2c(C)cccn2c1=O (stereo not drawn)	100.0
COc1ccc(OC)c(/C=C2\CC(c3ccccc3)C/C(=C\c3cc(OC)ccc3OC)C2=O)c1 (stereo not drawn)	104.7
Nc1ccc(C(=O)OCCCc2nc3cc4ccccc4cc3[nH]2)cc1	99.0
CCc1ccc(C(=O)Cn2c(NCCO)nc3ccccc32)cc1	107.4
Cc1nc2nc(Cc3ccccc3)[nH]n2c(=O)c1Cc1ccccc1	94.0
COC1(c2ccc(Cl)cc2)OC(=O)c2ccccc21 (stereo not drawn)	100.0

Sorted by formula weight (low to high): part of the list above.
SMILES	VACV E9 pol inh
CCCn1c(C)cc(C)c(C#N)c1=O	99.1
CC(=O)n1nccc1-c1nccnc1C	100.5
O=c1c(-c2cscn2)coc2cc(O)ccc12	87.4
CCc1ccc(C(=O)Cn2c(NCCO)nc3ccccc32)cc1	107.4
O=C(c1ccco1)c1nnn(Cc2ccccc2)c1-c1ccccc1	100.0
Cc1nc2nc(Cc3ccccc3)[nH]n2c(=O)c1Cc1ccccc1	94.0
Cc1cccc(OC(=O)Cn2c(C(F)(F)F)nc3ccccc32)c1	107.0
Nc1ccc(C(=O)OCCCc2nc3cc4ccccc4cc3[nH]2)cc1	99.0
CC(C)c1ccccc1OCC(O)CN1C(C)(C)CC(O)CC1(C)C (stereo not drawn)	93.9
CC(Sc1nc2ccccc2[nH]1)C(=O)Nc1nnc(-c2ccc(F)cc2)s1 (stereo not drawn)	100.6
